Screening data deposited in PubChem by National Center for Advancing Translational Sciences (NCATS).
miR-21 reporter: raises the signal of a miR-21 reporter; HeLa miR-21 FLuc reporter, luciferase, 48 h; Potency, µM (doses to about 38.3 µM), for inactives: at the highest dose reporter change, positive = more light; 340,000 tested, under 10 active; active = well fitted rising curve with a large enough effect; inconclusive = small, poorly fitted or top-dose-only effect; inactive = no such curve, though single readings can be large or run the other way;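 also: % of control where 0% means no effect; miR-21 action dims this reporter so a rising signal means less miR-21 action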
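Compounds were titrated across several concentrations (up to approximately 40 uM) and incubated 48 hours with HeLa miR-21-FLuc reporter cells (miR-21 target sequence downstream of FLuc, endogenous miR-21). Readout was firefly luciferase luminescence after lytic detection reagent.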
* = called active by the depositor; ? = inconclusive; [ ] = another dose, or the depositor's remark.

SMILES | miR-21 reporter
CCCOc1ccccc1C(=O)Nc1nc2c(s1)CCCC2 | -6.2%
COc1cccc(OC(=O)CSc2nnc(-c3ccc4c(c3)OCO4)o2)c1 | 2.1%
Cc1cccc(N2C(=O)C(CC(=O)Nc3ccc(Cl)cc3)N(Cc3ccco3)C2=O)c1 (centres undefined) | 0.5%
CC(C)CC(=O)NCc1nc2cccnc2n1Cc1ccccc1 | 3.2%
COc1cccc(CN2C(=O)N(c3ccc(C)cc3)C(=O)C2CC(=O)Nc2cc(OC)cc(OC)c2)c1 (centres undefined) | 28.2%
CCCCOc1ccc(C(=O)Nc2ccc3c(c2)CCCN3S(=O)(=O)c2ccc(C)cc2)cc1 | 14.6%
CC(=O)c1cccc(NC(=O)C2CCN(S(=O)(=O)c3ccc4[nH]c(=O)ccc4c3)CC2)c1 | -6.2%
Cn1nc(C(=O)NCc2cccc(Cl)c2)c2c1-c1ccccc1SC2 | -4.6%
O=S(=O)(c1ccccc1)c1nc(-c2ccc(Cl)cc2Cl)oc1N1CCCCC1 | 2.9%
O=c1oc2cc(O)ccc2cc1-c1nnc(Nc2ccccc2F)s1 | -61.2%
COC(=O)c1ccccc1NC(=O)c1ccc2nc(Cc3ccccc3)oc2c1 | -4.6%
Cc1ccccc1NS(=O)(=O)c1ccc2[nH]c3c(c2c1)CCCCC3 | 19.5%
COc1ccc(-c2nn(C)c3sc(C(=O)N4CCN(c5ccccc5F)CC4)cc23)cc1OC | -10.5%
CCC1=C(c2ccc(C)cc2)S(=O)(=O)N=C1N1CCC(C(=O)NCc2ccc(C)cc2)CC1 | 19.2%
COc1ccc(NC(=O)c2cc3c(=O)n(Cc4ccco4)ccc3nc2C)c(OC)c1 | -2.0%
COc1cccc(N2C(=O)C(CC(=O)Nc3ccc(F)cc3)N(CCC3=CCCCC3)C2=O)c1 (centres undefined) | ?
CNC(=O)c1c(NC(=O)/C=C/c2ccccc2)sc2c1CCC2 | -22.7%
Cc1cccc(-n2c(=O)c3c(c4cc(C)ccc4n3C)n(CC(=O)NCCC3=CCCCC3)c2=O)c1 | -0.3%
CCc1ccc(NC(=O)C(Cc2ccccc2)NS(=O)(=O)c2ccc3c(c2)c(=O)n(C)c(=O)n3C)cc1 (centres undefined) | 11.3%
CCOC(=O)c1c(C)[nH]c(C)c1S(=O)(=O)NCC(=O)Nc1ccc(CC)cc1 | -0.5%
Cc1ccc(-n2ncc(C(=O)NCCN3CCN(C)CC3)c2C2CCN(C(=O)OC(C)(C)C)CC2)c(C)c1 | -2.1%
Cc1ccc(NC(=O)c2nc(S(C)(=O)=O)ncc2N(Cc2ccc(C(C)(C)C)cc2)Cc2ccco2)cc1C | 7.0%
Cc1c(Cl)cccc1NC(=O)Nc1ccc2snnc2c1 | ?
Cc1ccc(CNC(=O)CCc2c(C)nc3c4c(C)cc(C)nc4nn3c2C)cc1 | -2.5%
Cc1cccc(NC(=O)CSc2nc(-c3cccc(C)c3)nc3c2Cc2c(CO)cnc(C)c2O3)c1 | -5.2%
Cc1cccc(N2C(=O)N(Cc3ccc(C(C)(C)C)cc3)c3ccccc3S2(=O)=O)c1 | 9.6%
CCOc1cc(C2CC(=O)Nc3c2c(C)nn3-c2nc(C)cc(C)n2)ccc1O (centres undefined) | -0.6%
CC(CNC(=O)Cn1c(-c2cccs2)cc2cc(Cl)ccc21)c1ccccc1 (centres undefined) | 0.1%
CCc1ccc(OCCSc2nc(-c3cccc(C)c3)nc3cc(=O)[nH]n23)cc1 | 2.6%
CCc1ccccc1NC(=O)c1cc(S(=O)(=O)N(CC)c2ccccc2)ccc1F | 15.3%
CCCCC(=O)OC1=CN(Cc2ccccc2)S(=O)(=O)c2ccccc21 | ?
CC(=O)c1c(C)oc2ccc(N(C(=O)c3ccncc3)S(=O)(=O)c3ccc(F)cc3C)cc12 | ?
Cc1ccc(C)c(NC(=O)C2CCN(c3cc(C)nc4c(-c5ccc(Cl)cc5)c(C)nn34)CC2)c1 | 0.1%
CCCCC(=O)NCc1nc2cccnc2n1Cc1ccc(OC)cc1 | -1.5%
Cc1ccc(NC(=O)Cn2c(=O)n(Cc3ccco3)c(=O)c3ccc(C(=O)NC4CCCC4)cc32)c(C)c1 | 0.6%
CCc1cccc(NC(=O)c2cc(S(=O)(=O)N3CCCCCC3)cn2C)c1 | -3.2%
Cc1ccc2nc(-c3ccc(C)c(NC(=O)Cc4ccccc4)c3)oc2c1 | -37.1%
COc1cccc(-c2ccc3c(N)c(C(=O)Nc4cc(F)ccc4F)sc3n2)c1 | -63.6%
CC1=C(C(=O)Nc2cccc(C(F)(F)F)c2)C(c2ccccn2)n2ncnc2N1 (centres undefined) | -3.5%
COC(=O)c1ccc(NC(=O)c2c(-c3ccccc3)c(-c3ccccc3)nn(C)c2=O)cc1 | 6.1%
CCOc1ccccc1C1C(C(=O)Nc2ccccc2)=C(C)Nc2c(C(=O)Nc3ccc(F)cc3)cnn21 (centres undefined) | 15.1%
COc1ccc(CN2C(=O)C(NC(=O)c3ccccc3OC)(C(F)(F)F)N=C2c2ccccc2)cc1 (centres undefined) | 10.4%
CCc1nn(-c2ccccc2)c2nc(-c3cccc(OC)c3)c3cc(OC)c(OC)cc3c12 | -1.4%
CCNC(=O)C1CCCN(c2ncnc3onc(C)c23)C1 (centres undefined) | -2.4%
COc1cccc(NC(=O)c2oc3ccccc3c2NC(=O)c2ccc(C(F)(F)F)cc2)c1 | 2.7%
CCOC(=O)c1ccc(N2C(=O)c3[nH]nc(-c4ccc(C)cc4)c3C2c2ccc(O)cc2)cc1 (centres undefined) | ?
Cc1oc(-c2cccc(Br)c2)nc1CSc1nc2ncccc2[nH]1 | -4.5%
COc1ccccc1NC(=O)c1c(-c2ccc(C)cc2)nnc2ccccc12 | -29.9%
Cc1ccc(CN(Cc2ccco2)C(=O)c2ccccc2Br)o1 | 17.4%
COc1ccc(-c2noc(CSc3nnc(C)n3-c3ccc(C)c(C)c3)n2)c(OC)c1 | -3.1%
COc1ccc(C(=O)Nc2nc3c(s2)CCc2cc(OC)ccc2-3)cc1 | ?
COc1cccc(CSc2nc3ccncc3n2CC(=O)Nc2ccc(OC)c(OC)c2OC)c1 | -25.3%
CCOc1ccc(-n2ccnc2SCC(=O)Nc2cc(C)ccc2C)cc1 | 3.7%
COc1ccc(-n2cc(C(=O)N(CCN(C)C)Cc3ccccc3)c3ccccc3c2=O)cc1 | -9.2%
Cc1ccc(NC(=O)C(=O)NCC(c2cccnc2)N2CCOCC2)cc1 (centres undefined) | 0.8%
COc1cc(-c2cc3n(C)c(C)c(CCC(=O)O)c(=O)n3n2)cc(OC)c1OC | -0.8%
O=C(NCc1ccccc1Cl)c1cc(-c2ccccc2)n[nH]1 | -26.4%
O=C1CC(c2ccc(F)cc2F)c2cc3c(cc2N1)OCO3 (centres undefined) | 11.8%
COC(=O)c1ccc(NC(=O)CSc2ccc(-c3sc(-c4ccccc4)nc3C)nn2)cc1 | -13.6%
CCOc1ccc(CNCCSc2nnnn2C)cc1OC | -0.9%
(listing goes on)
SMILES | miR-21 reporter
COc1ccc(CCNc2ncnc3c2c(-c2ccccc2)cn3-c2ccc(Cl)cc2)cc1OC | 1.1%
COc1ccc(NCc2cc3cc4c(cc3n(CC(=O)Nc3cc(C)cc(C)c3)c2=O)OCO4)cc1 | -1.4%
COc1cc2c(cc1OC)C1O[C@](CCCCN3C(=O)c4ccccc4C3=O)(C2)Oc2c1c(=O)oc1ccccc21 | 0.9%[7.66 µM]
Cc1cc(C)c(NC(=O)CSc2nc3c([nH]c4ccccc43)c(=O)n2C)c(C)c1 | 2.9%
Cc1ccc(-c2cn3c4c(=O)n(C)c(=O)n(C)c4nc3n2-c2cccc(Cl)c2)cc1 | -7.1%
Cc1cn2c(=O)cc(COC(=O)c3cccc(NC(=O)c4ccccc4Cl)c3)nc2s1 | -12.8%
COc1ccc(OC)c(NC(=O)CSc2ncc3c(n2)-c2ccccc2N(C)S3(=O)=O)c1 | -7.9%
CCCCn1c(=N)c(S(=O)(=O)c2ccccc2)cc2c(=O)n3cccc(C)c3nc21 | -0.8%
CCOc1cccc(NC(=O)C2CC(=O)N(C)C(=Nc3cccc(OC)c3)S2)c1 (centres undefined) | ?
COc1ccc2c(c1)c1c(c(=O)n(-c3ccc(C)cc3)c(=O)n1CC(=O)Nc1cc(C)ccc1C)n2C | -7.1%
O=C(c1cccc([N+](=O)[O-])c1)N1c2ncnn2C2(CCCCC2)[C@@H]2CCCC[C@@H]21 | 22.5%
COC(=O)c1cnn(-c2ccc(C(=O)Nc3ccc(C(C)=O)cc3)cc2)c1N | 8.4%
O=C(OCc1cc(=O)n2nc(C3CC3)sc2n1)c1ccc(NC(=O)c2ccccc2F)cc1 | -6.6%
CCCCCOC(=O)CSc1nc2sc3c(c2c(=O)n1-c1ccccc1)CC(C)(CC)OC3 (centres undefined) | -16.3%
CC(C)NC(=O)C1CCCN(c2ncnc3c2nc2n3CCCCC2)C1 (centres undefined) | 0.1%
Cn1nnnc1SCCNCc1cc(Br)ccc1OCc1ccccc1Cl | ?
Cn1c(=O)[nH]c(=O)c2c1nc(SCc1ccccc1Cl)n2CC(N)=O | 3.7%
COc1ccccc1NC(=O)Cn1nnc(C(=O)Nc2ccccc2Br)c1N | -15.7%
COc1ccc(CCNC(=O)Cn2nc(C)n3c(cc4occc43)c2=O)cc1OC | 2.0%
Cc1ccc(C)c(N2CCN(C(=O)CS(=O)(=O)c3cccc4nsnc34)CC2)c1 | 3.2%

In a second layout: entries from further up
canonical_smiles	miR-21 reporter
COc1cc2c(cc1OC)C1O[C@](CCCCN3C(=O)c4ccccc4C3=O)(C2)Oc2c1c(=O)oc1ccccc21	0.9%[7.66 µM]
Cc1cc(C)c(NC(=O)CSc2nc3c([nH]c4ccccc43)c(=O)n2C)c(C)c1	2.9%
Cc1ccc(-c2cn3c4c(=O)n(C)c(=O)n(C)c4nc3n2-c2cccc(Cl)c2)cc1	-7.1%

Going on with the list.
SMILES | miR-21 reporter
O=C(CN1C(=O)COc2ccc(S(=O)(=O)N3CCOCC3)cc21)N1CCN(c2cccc(Cl)c2)CC1 | 1.9%
COc1ccc(-c2nc3sc(CCNC(=O)C(=O)Nc4c(C)cccc4C)c(C)n3n2)cc1 | -18.0%
COc1ccc(-c2noc(CSc3nnc(-c4ccncc4)n3-c3ccc(C)cc3)n2)cc1OC | -11.2%
Cc1c(CC(=O)NCc2ccccc2Cl)c(=O)oc2cc(O)ccc12 | -25.3%
COc1ccc(CCn2c(=O)c3cccnc3n(CC(=O)Nc3c(C)cc(C)cc3C)c2=O)cc1OC | 0.3%
COc1cccc(C(=O)Nc2nc(-c3nnn(-c4cc(C)ccc4C)c3C)ns2)c1 | 0.1%
CCCN1CCN(CCCNC(=O)c2ccc3nc(Cc4ccccc4)oc3c2)CC1 | -2.3%
COc1ccc(CCC(=O)N2CCc3c([nH]c4ccccc34)C2c2ccc(F)cc2)cc1 (centres undefined) | ?
CC1CCN(c2ccc(-c3nc(C(C)C)no3)cc2[N+](=O)[O-])CC1 | 1.4%
Cc1ccc(NC(=O)N2CCC(n3c(C)nc4cccnc43)CC2)c(Cl)c1 | -5.1%
CCOc1ccccc1NC(=O)c1c(NC(=O)C(C)Oc2cccc(Cl)c2)sc2c1CCCCC2 (centres undefined) | -3.3%
Cc1ccc2c(c1)c1c(c(=O)n(-c3cccc(Cl)c3)c(=O)n1CC(=O)Nc1c(C)cccc1C)n2C | -6.7%
CCCOC(=O)c1ccc(NC(=O)Cn2nnc3sc4c(c3c2=O)CCC(C(C)(C)C)C4)cc1 (centres undefined) | 12.6%
COC(=O)c1c(-c2cccs2)csc1NC(=O)c1cccc(Cl)c1 | -62.7%
Cc1c(NC(=O)c2nc3ccccc3n(C)c2=O)cccc1[N+](=O)[O-] | -10.0%
CCc1cccc2c(-c3ccc(F)cc3)nc(SCC(=O)Nc3ccccc3)nc12 | 7.6%
COc1ccc(CCNC(=O)C2c3ccccc3C(=O)N2Cc2ccccc2)cc1OC (centres undefined) | 10.0%
Cc1cc(C)cc(NC(=O)C(=O)NCC(c2cccnc2)N2CCc3ccccc32)c1 (centres undefined) | 1.4%
CCOC(=O)c1c(C)oc2ncnc(Nc3ccc(CC)cc3)c12 | -0.8%
COc1ccc(-c2nc(SCC(=O)NC(C)CCc3ccccc3)n[nH]2)cc1 (centres undefined) | 28.1%
COC(=O)c1ccc(NC(=O)NC(C)c2c(-n3cccc3)sc(C)c2C)cc1 (centres undefined) | ?
CCc1ccc2oc(-c3cccc(NC(=O)COc4ccccc4Cl)c3)nc2c1 | -15.5%

Part of the list above, as labelled records:
CC1CCN(c2ccc(-c3nc(C(C)C)no3)cc2[N+](=O)[O-])CC1
  miR-21 reporter: 1.4%
Cc1ccc(NC(=O)N2CCC(n3c(C)nc4cccnc43)CC2)c(Cl)c1
  miR-21 reporter: -5.1%
CCOc1ccccc1NC(=O)c1c(NC(=O)C(C)Oc2cccc(Cl)c2)sc2c1CCCCC2 (centres undefined)
  miR-21 reporter: -3.3%
Cc1ccc2c(c1)c1c(c(=O)n(-c3cccc(Cl)c3)c(=O)n1CC(=O)Nc1c(C)cccc1C)n2C
  miR-21 reporter: -6.7%

The list is partial; count on the stated rates, not on these rows.
